Assay outcomes as filed in PubChem BioAssay.
TRPV1 potentiator: potentiators of human vanilloid receptor 1 (TRPV1). Q8NER1. AID 540277. TRPV1-expressing cells, Fluo-8 calcium influx, capsaicin EC20 potentiation; host cell line not named in the record; control for the full effect not named in the record. potentiation, % at 8.33 µM. actives 0.02% (n = 320,000); active means potentiation above 80%; inconclusive means 30% to 80%; inactive means below 30%; further: 0% is about no effect
Target sequence (Q8NER1 whole entry, looked up): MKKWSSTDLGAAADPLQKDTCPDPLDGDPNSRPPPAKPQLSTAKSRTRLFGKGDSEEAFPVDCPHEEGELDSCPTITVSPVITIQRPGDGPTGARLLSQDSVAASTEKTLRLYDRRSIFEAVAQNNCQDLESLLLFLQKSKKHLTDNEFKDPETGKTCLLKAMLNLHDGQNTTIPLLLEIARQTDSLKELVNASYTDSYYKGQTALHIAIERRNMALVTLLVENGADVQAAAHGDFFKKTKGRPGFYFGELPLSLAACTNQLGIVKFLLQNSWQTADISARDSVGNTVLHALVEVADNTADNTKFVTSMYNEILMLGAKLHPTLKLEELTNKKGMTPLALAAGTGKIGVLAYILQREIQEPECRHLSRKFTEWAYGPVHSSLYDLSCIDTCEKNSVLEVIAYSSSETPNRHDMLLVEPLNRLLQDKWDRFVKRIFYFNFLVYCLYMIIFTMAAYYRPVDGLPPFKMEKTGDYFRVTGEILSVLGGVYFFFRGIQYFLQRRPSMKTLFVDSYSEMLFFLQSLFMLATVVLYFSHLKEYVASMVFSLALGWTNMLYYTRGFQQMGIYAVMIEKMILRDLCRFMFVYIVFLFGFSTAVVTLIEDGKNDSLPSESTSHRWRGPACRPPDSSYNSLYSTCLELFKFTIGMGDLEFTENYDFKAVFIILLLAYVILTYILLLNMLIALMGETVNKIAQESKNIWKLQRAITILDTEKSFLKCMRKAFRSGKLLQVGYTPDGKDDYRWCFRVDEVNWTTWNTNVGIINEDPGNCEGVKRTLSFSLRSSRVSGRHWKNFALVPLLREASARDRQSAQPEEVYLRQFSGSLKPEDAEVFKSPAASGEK
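TRPV1-expressing cells were cultured overnight at 35.5C and loaded with Fluo-8 calcium dye for 40 to 90 min at room temperature. After a 10 s baseline, compound was added and calcium influx was read kinetically for 3 min (ex 480/em 520 nm).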
Six1-Eya2 inh: inhibitors of human Six1/Eya2 interaction; Q15475+O00167; AlphaScreen GST-Six1/His-Eya2 binding, biochemical; active compounds read low; control for the full effect not named in the record; activity change, % (test concentration not listed); actives 0.56% (n = 360,000); in the data active = activity change below about -65%; inconclusive = about -30% to -65%; inactive = above about -30%; further: on the % scale 0 is the no-effect control and ±100 the full control effect
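Homogeneous AlphaScreen proximity assay pairing GST-Six1 with His-tagged Eya2 (added as 5X mix: 250 nM and 500 nM) in 50 mM Tris pH 8.0, 300 mM NaCl, 1 mM TCEP. Glutathione donor and nickel acceptor beads; 1 h, 37 °C, dark.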
D2 PAM: positive allosteric modulators of human D2 dopamine receptor | P14416 | DiscoveRx D2 beta-arrestin cells, luminescence, 90 min; 100% = 57 uM dopamine signal | potentiation, % (no concentration beside the values) | actives 0.23% (n = 360,000) | AID 624464; active = potentiation of 50% or more; inconclusive = 30% to 50%; inactive = 30% or less;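 further: compound concentration not given in the record; tested on top of an EC20 dose of dopamine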
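PathHunter beta-arrestin assay in DiscoveRx D2 cells. Compounds were added with an EC20 of dopamine (50 nM final) for 90 min at 37 deg C. Luminescence was read 1 h after detection reagent, with 57 uM dopamine as the EC100 control.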
Sfp inh: blocks B. subtilis Sfp PPTase activity | actives 3.5% (n = 310,000) | AID 1490 | Potency, µM, without a hit: max response, negative = inhibition, most hits filed as inhibitors | Biochemical Sfp PPTase activity, qHTS; active means well fitted inhibition curve with a large enough effect; inconclusive means small, poorly fitted or top-dose-only effect, or another doubt; inactive means no such curve, though single readings can be large or run the other way;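 further: the enzyme is Sfp with the accession as filed and its product quenches rhodamine fluorescence; potency means the concentration at half of the fitted maximal effect; 0% = enzyme reaction without inhibitor and -100% = no enzyme wells; top concentration of the series not given in the record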
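Fluorescence-quenching assay: 15 nM Sfp-PPTase preincubated 15 min at room temperature with compound, then 5 uM rhodamine-CoA and 12.5 uM BHQ-2-labelled YbbR peptide added. Fluorescence (ex 525/em 598 nm) read at start and after 30 min; difference gives rate.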
PINK1 expr mod: changes PINK1 expression. PINK1 immunofluorescence, high-content cytometry, 24 h. Potency, µM (titrated, usually from 76.6 µM), for inactives: top-dose activation (PINK1 increase), most hits filed as activators. actives 0.2% (n = 410,000). AID 624263; active = well fitted activation curve with a large enough effect; inconclusive = small, poorly fitted or top-dose-only effect; inactive = flat fitted curve, though single readings scatter; cell line not stated here;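 further: potency means the concentration at half of the fitted maximal effect; % of control where 0% means no effect; nearly all actives have a fitted effect of over 65% in size; a mitochondrial uncoupler was the plate control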
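Stable cell line, 250 cells/well, 12 h attachment; compounds pinned at 5 concentrations, 24 h; CCCP control. Fixed with nuclear dye, primary antibodies 12 h at 10 degrees C, secondary plus cell stain; laser-scanning cytometer read.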
CtBP-E1A inh: inhibitors of CtBP/E1A interaction; AlphaScreen GST-E1A/His-CtBP binding, 1536-well; active compounds read low; control for the full effect not named in the record; AID 651724; actives 0.49% (n = 340,000); activity change, % (concentration not given with the values); in the data active means activity change below about -65%; inconclusive means about -30% to -65%; inactive means above about -30%; further: on the % scale 0 is the no-effect control and ±100 the full control effect
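Homogeneous bead-based format: GST-tagged E1A captured on glutathione donor beads, His-tagged CtBP on nickel acceptor beads; compounds precede bead addition by 2 h at 37 °C.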
D2 agonist: agonists of human D2 dopamine receptor (beta-arrestin). P14416. DiscoveRx PathHunter D2 beta-arrestin, luminescence, 90 min; 100% = 57 uM dopamine signal. activation, % (concentration not given with the values). actives 0.084% (n = 360,000). AID 624465; in the data active = activation above about 40%; inconclusive = about 15% to 40%; inactive = below about 15%; further: compound concentration not given in the record; the text of the record calls up to 30% inactive
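Agonist mode: compounds alone added to overnight-plated D2 PathHunter cells for 90 min at 37 C, with 57 uM final dopamine (EC100) defining full response. Beta-arrestin recruitment detected by chemiluminescent reagent, read after 1 h at ambient temperature.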
The depositor's hits bear a star; [ ] = dose if it differs, or a comment.

The opening 5 compounds, to show the layout:
CCCCC1CCC(C(=O)Nc2ccc(S(=O)(=O)Nc3nccs3)cc2)CC1 (stereo unspecified) was read as TRPV1 potentiator 2, Six1-Eya2 inh -6, D2 PAM -7, Sfp inh 9%, PINK1 expr mod 2.6%[38.3 µM], CtBP-E1A inh -10 and D2 agonist 0.1.
`COc1ccc(NS(=O)(=O)c2ccc(N3CCOCC3)c(NC(=O)/C=C/C(=O)O)c2)cc1` gave Six1-Eya2 inh -1, D2 PAM -7, PINK1 expr mod 2.2%, CtBP-E1A inh 13 and D2 agonist -4.7.
Cc1nc2ccc(NC(=O)C3(C)CCCN(C(C)C)C3)cc2o1 (stereo unspecified) was read as Six1-Eya2 inh 3, D2 PAM -9, PINK1 expr mod 0.1%, CtBP-E1A inh 1 and D2 agonist -5.1.
`CCCCc1nc(SCC(=O)Nc2ncccn2)n[nH]1` gave TRPV1 potentiator 1, Six1-Eya2 inh 3, D2 PAM -13, Sfp inh 3%, PINK1 expr mod 0.6%, CtBP-E1A inh 7 and D2 agonist -0.5.
Cc1cc(C)c2c(N)c(C(=O)Nc3ccccc3Br)sc2n1 was read as TRPV1 potentiator 2, Six1-Eya2 inh 18, D2 PAM -3, Sfp inh -25%, PINK1 expr mod 8.9%, CtBP-E1A inh 5 and D2 agonist 1.6.

The list itself (from the top)
CCCCC1CCC(C(=O)Nc2ccc(S(=O)(=O)Nc3nccs3)cc2)CC1 (stereo unspecified) was read as TRPV1 potentiator 2, Six1-Eya2 inh -6, D2 PAM -7, Sfp inh 9%, PINK1 expr mod 2.6%[38.3 µM], CtBP-E1A inh -10 and D2 agonist 0.1.
`COc1ccc(NS(=O)(=O)c2ccc(N3CCOCC3)c(NC(=O)/C=C/C(=O)O)c2)cc1` gave Six1-Eya2 inh -1, D2 PAM -7, PINK1 expr mod 2.2%, CtBP-E1A inh 13 and D2 agonist -4.7.
Cc1nc2ccc(NC(=O)C3(C)CCCN(C(C)C)C3)cc2o1 (stereo unspecified) was read as Six1-Eya2 inh 3, D2 PAM -9, PINK1 expr mod 0.1%, CtBP-E1A inh 1 and D2 agonist -5.1.
`CCCCc1nc(SCC(=O)Nc2ncccn2)n[nH]1` gave TRPV1 potentiator 1, Six1-Eya2 inh 3, D2 PAM -13, Sfp inh 3%, PINK1 expr mod 0.6%, CtBP-E1A inh 7 and D2 agonist -0.5.
Cc1cc(C)c2c(N)c(C(=O)Nc3ccccc3Br)sc2n1 was read as TRPV1 potentiator 2, Six1-Eya2 inh 18, D2 PAM -3, Sfp inh -25%, PINK1 expr mod 8.9%, CtBP-E1A inh 5 and D2 agonist 1.6.
For Cc1ccc(C)c(OCCn2cc(C(=O)O)c3ccccc32)c1 the results were TRPV1 potentiator -14, Six1-Eya2 inh 32, D2 PAM 2, Sfp inh 2%, PINK1 expr mod -2.5%, CtBP-E1A inh -3 and D2 agonist 0.2.
For COc1ccc(C(=O)Nc2cccc(S(=O)(=O)NC3=NCCCCC3)c2)cc1 the results were TRPV1 potentiator 5, Six1-Eya2 inh -27, D2 PAM -2, PINK1 expr mod -1.0%, CtBP-E1A inh -24 and D2 agonist -0.8.
For CC(O)C(NS(=O)(=O)c1ccc(Cl)cc1)C(=O)OCc1cc([N+](=O)[O-])cc2c1OCOC2 (stereo unspecified) the results were TRPV1 potentiator 9, Six1-Eya2 inh 32, D2 PAM -3, Sfp inh -10%, PINK1 expr mod -2.6%, CtBP-E1A inh -18 and D2 agonist -0.2.
For COc1ccc(S(=O)(=O)N(C)CC(=O)NCCN2CCOCC2)cc1Cl the results were TRPV1 potentiator 6, Six1-Eya2 inh -7, D2 PAM -8, Sfp inh 22%, PINK1 expr mod 3.1%, CtBP-E1A inh 0 and D2 agonist -17.
`CN(C)c1ccc(NC(=O)c2sc(SCC(=O)Nc3nccs3)nc2N)cc1` gave TRPV1 potentiator 6, Six1-Eya2 inh inconclusive, D2 PAM 7, Sfp inh -10%, PINK1 expr mod -1.3%, CtBP-E1A inh inconclusive and D2 agonist 8.4.
`C=CCN1C(=O)/C(=C\c2cccc(OC(=O)c3ccco3)c2)SC1=S` gave TRPV1 potentiator 5, Six1-Eya2 inh -13, D2 PAM -1, Sfp inh 27%, PINK1 expr mod 2.3%, CtBP-E1A inh -4 and D2 agonist 6.8.
`O=C(N/N=C1\CCSC1)c1cc(Cl)ccc1O` gave TRPV1 potentiator -3, Six1-Eya2 inh -1, D2 PAM -15, Sfp inh 10%, PINK1 expr mod 0.4%, CtBP-E1A inh -14 and D2 agonist -3.6.
CC(NNC(=S)N1CCCCCC1)c1ccc2ccccc2n1 (stereo unspecified) was read as Six1-Eya2 inh 1, D2 PAM -28, PINK1 expr mod 1.3%, CtBP-E1A inh -3 and D2 agonist -19.
Screening COc1ccccc1C(=O)NC(=O)CSc1nnnn1C returned Six1-Eya2 inh 12, D2 PAM -3, PINK1 expr mod 0.7% and D2 agonist -0.4.
For CC(C)c1ccc(NC(=O)CSc2nc(=O)n(CCN3CCOCC3)c3c2CCC3)cc1 the results were TRPV1 potentiator -6, Six1-Eya2 inh 8, D2 PAM -19, PINK1 expr mod -2.7%, CtBP-E1A inh 0 and D2 agonist -3.0.
CN(CC(=O)N1CCN(c2ccccc2)CC1)S(=O)(=O)c1cccs1 was read as TRPV1 potentiator -7, Six1-Eya2 inh 36, D2 PAM 1, Sfp inh -13%, PINK1 expr mod -2.7%, CtBP-E1A inh -6 and D2 agonist 3.7.
For CC(O)(c1cccc(F)c1)c1nc(-c2ccccc2)cs1 (stereo unspecified) the results were Six1-Eya2 inh -1, D2 PAM -7, PINK1 expr mod 14%, CtBP-E1A inh 7 and D2 agonist -2.5.
For Cc1noc(NS(=O)(=O)c2ccc(NC(=O)C(C)C)cc2)c1C the results were TRPV1 potentiator -15, Six1-Eya2 inh 18, D2 PAM -8, Sfp inh -1%, PINK1 expr mod -0.6%, CtBP-E1A inh -11 and D2 agonist -4.2.
`CCOC(=O)c1ccc(NC(=S)Nc2ccc(C)cc2)cc1` gave TRPV1 potentiator -4, Six1-Eya2 inh 1, D2 PAM 1, Sfp inh 22%, PINK1 expr mod -0.2%, CtBP-E1A inh 6 and D2 agonist -3.4.
For CCOC(=O)C1=C(CC)Nc2ccccc2N=C1NC(=O)c1cc(C)on1 the results were TRPV1 potentiator 0, Six1-Eya2 inh 0, D2 PAM 0, PINK1 expr mod 4.5%, CtBP-E1A inh 7 and D2 agonist 7.7.
`NC1=NC[C@H](Cc2ccc(O)cc2)N1CCC12CC3CC(CC(C3)C1)C2` gave TRPV1 potentiator 25, Six1-Eya2 inh -3, D2 PAM -13, Sfp inh -28%, PINK1 expr mod 9.6%, CtBP-E1A inh -5 and D2 agonist -3.0.
Screening COc1cc(-c2nccc3cc4c(cc23)OCO4)cc(OC)c1OC returned Six1-Eya2 inh -1, D2 PAM -9, PINK1 expr mod 2.6%, CtBP-E1A inh 1 and D2 agonist -2.7.
`Cc1nc(NC(=O)COC(=O)c2cccs2)c(Cl)cc1Cl` gave TRPV1 potentiator 19, Six1-Eya2 inh 11, D2 PAM 5, PINK1 expr mod 5.3%, CtBP-E1A inh 19 and D2 agonist -4.2.
Screening CC(=O)N1NC(=Nc2ccccc2)SC1(C)C returned TRPV1 potentiator -2, Six1-Eya2 inh 4, D2 PAM -1, Sfp inh -4%, PINK1 expr mod -0.8%, CtBP-E1A inh -1 and D2 agonist 3.0.
Screening N#C/C(=C\c1ccc(C#N)cc1)C(=O)c1ccccc1 returned TRPV1 potentiator inconclusive, Six1-Eya2 inh -3, D2 PAM -2, Sfp inh 50µM*, PINK1 expr mod 8.9% and D2 agonist 2.9.
CCCn1nc(NC(=O)c2cccs2)c2cc3cc(C)ccc3nc21 was read as TRPV1 potentiator -17, Six1-Eya2 inh 55, D2 PAM -2, Sfp inh -7%, PINK1 expr mod 1.5%, CtBP-E1A inh 59 and D2 agonist -19.
Screening CCCCNC(=O)C1CCC(CNS(=O)(=O)c2c(C)cc(C)cc2C)CC1 (stereo unspecified) returned TRPV1 potentiator -5, Six1-Eya2 inh 10, D2 PAM -13, Sfp inh 11%, PINK1 expr mod 1.7% and D2 agonist 2.0.
`CCN1CCN(CCCCOc2ccccc2F)CC1` gave TRPV1 potentiator -5, Six1-Eya2 inh -1, D2 PAM 2, Sfp inh inconclusive, PINK1 expr mod -2.7%, CtBP-E1A inh -1 and D2 agonist -0.2.
Cc1ccc(-c2nnc(CSc3nnc(COc4ccccc4)n3-c3ccccc3)o2)cc1 was read as TRPV1 potentiator -13, Six1-Eya2 inh -3, D2 PAM 0, Sfp inh -6%, PINK1 expr mod -1.0%, CtBP-E1A inh -5 and D2 agonist -2.2.
`O=C(NCCN1C(=O)S/C(=C/c2cccnc2)C1=O)c1ccc(S(=O)(=O)N2CCCC2)cc1` gave Six1-Eya2 inh 3, D2 PAM 0, PINK1 expr mod -0.3%, CtBP-E1A inh -6 and D2 agonist 5.6.
CCCNC(=O)C1(C)CCN(Cc2ccc(C(=O)OCC)cc2)C1 (stereo unspecified) was read as Six1-Eya2 inh 1, D2 PAM -15, PINK1 expr mod 0.7%, CtBP-E1A inh 0 and D2 agonist -1.6.
For Cc1ncc(CSc2nc3ccccc3[nH]2)c(N)n1 the results were TRPV1 potentiator inconclusive, Six1-Eya2 inh 5, D2 PAM -9, Sfp inh -6%, PINK1 expr mod -4.7%[38.3 µM], CtBP-E1A inh 9 and D2 agonist 1.8.
For C(=N\Nc1cc(N2CCCCC2)ncn1)/c1ccco1 the results were TRPV1 potentiator 7, Six1-Eya2 inh -10, D2 PAM -2, Sfp inh -7%, PINK1 expr mod -0.5%, CtBP-E1A inh -5 and D2 agonist -4.8.
Screening COc1cccc(-c2ncc3ccccc3c2CO)c1 returned TRPV1 potentiator 6, Six1-Eya2 inh 4, D2 PAM -15, PINK1 expr mod -0.2%, CtBP-E1A inh 1 and D2 agonist -1.4.
Screening CC(NC(=O)Nc1ccc2c(c1)OCO2)C1CCCO1 (stereo unspecified) returned TRPV1 potentiator 0, Six1-Eya2 inh 4, D2 PAM -6, Sfp inh 2%, PINK1 expr mod 0.5%, CtBP-E1A inh 2 and D2 agonist -0.9.
`Cc1ccc(S(=O)(=O)N2CCC(=O)CC2)cc1` gave TRPV1 potentiator -1, Six1-Eya2 inh 5, D2 PAM 7, Sfp inh 12%, PINK1 expr mod -1.5%, CtBP-E1A inh 4 and D2 agonist 0.4.
